# From PubChem BioAssay
# NS1 function inh: influenza NS1 inhibition; hit rate 0.4% among 270,000; Potency, µM (series often up to 46.1 µM), for the others: at the top dose activity, positive = more growth; S. cerevisiae slowed by influenza A NS1, growth recovery by OD600; active means well fitted rising curve with a large enough effect; inconclusive means small, poorly fitted or top-dose-only effect; inactive means no such curve, though single readings can be large or run the other way; note: nearly all actives have a fitted effect of over 50% in size
#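 OD600 was taken as the measure of yeast growth restored by compound in an NS1-expressing S. cerevisiae strain. Cells had been washed out of glucose medium and diluted 1:100 into galactose -URA medium, pH 6.0.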
# LASV entry inh: inhibitors of Lassa virus binding or cell entry | hit rate 1.2% among 300,000 | Potency, µM (doses to about 37.9 µM), for inactives: at the top dose activity change, negative = inhibition, hits mostly inhibitors | Lassa virus pseudotype entry inhibition, cell reporter; control for the full effect not named in the record; active means well fitted inhibition curve with a large enough effect; inconclusive means small, poorly fitted or top-dose-only effect, or effect the other way; inactive means flat fitted curve, though single readings scatter; tested in HEK293 cells; note: % is set by controls: 0 for no effect and ±100 for the full control effect; nearly all actives have a fitted effect of over 50% in size; luciferase read-out
# Cruzain inh Det: inhibitors of Trypanosoma cruzi cruzain with detergent; P25779; purified cruzain, Z-FR-AMC fluorescence, 0.01% Triton; Potency, µM, for the others: max response, negative = inhibition, hits mostly inhibitors; hit rate 0.43% among 200,000; AID 1478;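 note: plate controls were neutral wells for no effect and buffer without enzyme for full effect; nearly all actives have a fitted effect of over 40% in size; top concentration of the series not given in the record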
# Target sequence (P25779 123-467 limits assumed): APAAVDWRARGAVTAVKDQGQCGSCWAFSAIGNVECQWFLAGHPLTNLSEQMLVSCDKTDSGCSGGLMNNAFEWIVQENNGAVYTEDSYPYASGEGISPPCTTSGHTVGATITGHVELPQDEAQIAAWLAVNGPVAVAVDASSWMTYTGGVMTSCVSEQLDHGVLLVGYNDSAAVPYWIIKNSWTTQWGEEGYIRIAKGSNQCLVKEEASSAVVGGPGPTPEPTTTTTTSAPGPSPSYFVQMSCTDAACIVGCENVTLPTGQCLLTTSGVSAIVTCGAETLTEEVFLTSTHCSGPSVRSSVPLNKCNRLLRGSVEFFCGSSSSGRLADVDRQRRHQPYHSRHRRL
#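 15 min RT preincubation of 1.5 nM cruzain with compound, then 2 uM Z-FR-AMC added; kinetic AMC fluorescence, 60 s delta. Triton X-100 0.01%, pH 5.5.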
# Marburg entry inh: inhibitors of Marburg virus binding or cell entry; hit rate 1.8% among 300,000; Marburg virus pseudotyped entry inhibition, cell reporter; control for the full effect not named in the record; about a third of the inactives were read at about 46 µM; Potency, µM (highest dose often 37.8 µM), without a hit: at the highest dose activity change, negative = inhibition, usual class: inhibitors; active = well fitted inhibition curve with a large enough effect; inconclusive = small, poorly fitted or top-dose-only effect, or effect the other way; inactive = flat fitted curve, though single readings scatter; tested in HEK293 cells; about a fifth of its hits are not listed in these tables; note: % is set by controls: 0 for no effect and ±100 for the full control effect; luciferase read-out
# SARS PLP yeast: inhibitors of SARS-CoV papain-like protease in yeast. S. cerevisiae expressing SARS-CoV PLpro, growth rescue; control for the full effect not named in the record. hit rate 0.19% among 330,000. Potency, µM (titrated, usually from 32.9 µM), without a hit: at the highest dose activity, positive = growth rescue; active means well fitted rising curve with a large enough effect; inconclusive means small, poorly fitted or top-dose-only effect; inactive means no such curve, though single readings can be large or run the other way; note: 0% is about no effect; nearly all actives have a fitted effect of over 55% in size; growth read by luminescence after 48 h
# Cruzain inh noDet: inhibitors of Trypanosoma cruzi cruzain without detergent | AID 1476 | P25779 | Potency, µM, for inactives: max response, negative = inhibition, hits mostly inhibitors | purified cruzain, Z-FR-AMC fluorescence, no detergent | hit rate 2.3% among 200,000;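 note: plate controls were enzyme without inhibitor for no effect and buffer without enzyme for full effect; nearly all actives have a fitted effect of over 40% in size; top concentration of the series not given in the record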
#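 Purified cruzain at 1.5 nM, pre-incubated 15 min with compound at room temperature in 100 mM sodium acetate pH 5.5, 5 mM DTT, 0.00005% Triton X-100. Reaction started with 2 uM Z-FR-AMC; AMC fluorescence increase over 60 s gives rate.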
# RE007 growth inh: less growth of the S. pombe RE007 Vpr strain | Potency, µM (doses to about 92.2 µM), for the others: top-dose activity change, negative = less growth | S. pombe RE007 Vpr strain, BacTiter-Glo ATP luminescence, 24 h; control for the full effect not named in the record | hit rate 0.21% among 360,000 | AID 651644; active = well fitted falling curve with a large enough effect; inconclusive = small, poorly fitted or top-dose-only effect; inactive = no such curve, though single readings can be large or run the other way;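 note: % is set by controls: 0 for no effect and ±100 for the full control effect; nearly all actives have a fitted effect of over 50% in size; the assay follows cell death caused by Vpr and the record does not say whether a fall means rescue or toxicity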
#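 Fission yeast strain RE007, carrying one chromosomally integrated HIV-1 vpr copy, was seeded at OD 0.01 in PMG+AL medium with 23 nL pinned compound. After 24 h at 30 °C and 99% humidity, viability was read by BacTiter-Glo luminescence.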
# 2A StopGo: lowers the luciferase signal of an FMDV 2A StopGo reporter. human cells with a luciferase reporter of 2A StopGo recoding; control for the full effect not named in the record. Potency, µM (titrated, usually from 57.9 µM), for inactives: top-dose signal change, negative = less light. hit rate 1.2% among 410,000. AID 1159524; active = well fitted falling curve with a large enough effect; inconclusive = small, poorly fitted or top-dose-only effect; inactive = no such curve, though single readings can be large or run the other way; tested in HEK293T cells; note: % is set by controls: 0 for no effect and ±100 for the full control effect; nearly all actives have a fitted effect of over 45% in size; luciferase light after 4 h
# * hit, by the source's call; ? = inconclusive; / = not tested or not shown; & = joins results of further samples; [ ] = remark or other dose. Unless noted, calls come from the whole dose curve; as a rule, active = well fitted curve in the direction sought with a large enough effect; inconclusive = small, poorly fitted or top-dose-only effect, or another doubt; inactive = no such curve, though single readings can be large; an effect the other way counts as inactive or inconclusive. Potency is the fitted concentration of half-maximal effect.
SMILES,NS1 function inh,LASV entry inh,Cruzain inh Det,Marburg entry inh,SARS PLP yeast,Cruzain inh noDet,RE007 growth inh,2A StopGo
CCCc1nc(N2CCOCC2)c(C#N)c2c1CCCC2,-12%,3%,-0.9%,?,-9%,-1%,-10%,-13%
CCC(Oc1ccccc1OC)C(=O)Nc1ccc2c(c1)n(C)c(=O)n2C (stereo not given),-1%,-23%[46.1 µM],/,?,1%,/,3%,-19%
Cc1c(CC(=O)N2CCN(C(=O)C3COc4ccccc4O3)CC2)c(=O)oc2c(C)c(O)ccc12 (stereo not given),?,/,/,/,19%,/,0%,-22%
CCOC(=O)c1ccccc1NC(=O)Cn1cc(C(=O)c2cccc(OC)c2)c(=O)c2ccc(C)nc21,/,-15%[46.1 µM],-1.6%,/,/,-5%,/,-3%
CC(C)Cc1cc(C(=O)Nc2cc(Cl)ccc2Cl)no1,-2%,/,-4.8%,/,0%,3%,-6%,10%
CCc1cnc2c(c1SCC(=O)NCc1ccc(C)cc1)c(=O)n(C)c(=O)n2C,/,-15%[46.1 µM],0.1%,/,/,-15%,/,?
CCN(CC)CCCNC(=O)Cn1cnc2ccc(S(=O)(=O)N3CCC(C)CC3)cc2c1=O,/,25%,/,2%[46.1 µM],1%,/,1%,-8%
Cc1n[nH]c(=S)n1/N=C/c1ccc(-c2ccccc2[N+](=O)[O-])o1,-2%,-14%,-1.8%,-15%,3%,-7%,11%,-12%
Cc1nnc(SCC(=O)N2CCN(C(=O)c3ccco3)CC2)n1-c1ccccc1,/,-6%[46.1 µM],/,-19%[46.1 µM],0%,/,-6%,2%
O=C(Cc1ccc(F)cc1)Nc1cccc2cccnc12,-15%,-5%,-6.6%,-7%&-7%,-3%,-16%,4%,9%
CCC1CCCCN1CCCNC(=O)C1CCCN(c2nn3c(=O)cc(C)nc3s2)C1 (stereo not given),3%,/,/,/,3%,/,-7%,1%
Cc1noc(/C=C/c2ccco2)c1S(=O)(=O)N1CCC(C(=O)Nc2ccc(F)c(Cl)c2)CC1,/,-12%[46.1 µM],-0.1%,0%[46.1 µM],/,-13%,/,?
CC1CCC(C(C)C)C(OC(=O)Cn2c(COc3ccccc3)[n+](C)c3ccccc32)C1 (stereo not given),2%,?,/,?,-8%,/,18%,28µM*
O=C(CCCc1nc(-c2ccccc2Cl)no1)NC1CCCC1,-12%,/,/,/,2%,/,8%,?
N#C/C(=C\c1ccc(-c2ccccc2[N+](=O)[O-])o1)C(N)=O,-3%,10%[46.1 µM],/,0%[46.1 µM],-1%,/,5%,-7%
Cc1ccc(-c2noc(CSc3nnc(Cc4ccccc4)n3-c3ccc(Cl)cc3)n2)cc1,22%,1.6µM*,-6.8%,?,-3%,16%,5%,-22%
CCc1cc2c(cc3c(=O)n(CC(=O)NCCCN(CC)CC)nc(CC)n32)s1,-4%,-2%,-1.2%,-21%,-1%,-6%,-1%,4%
Cc1c(C(=O)/C=C/c2cccs2)oc2ccc(F)cc12,-11%,-1%,-1.1%,23%[46.1 µM],-13%,-7%,-1%,21%
CCOC(=O)N1CCN(Cc2nc3cc(NC(=O)c4ccco4)ccc3n2CC)CC1,-23%,0%,/,?,-1%,/,-18%,10%
CCN(Cc1ccccc1)S(=O)(=O)c1cc(Br)cc2c1N(C(=O)C1CC1)CC2,/,-21%[46.1 µM],-4.4%,?,/,-23%,/,-11%
COC(=O)CNC(=O)CSc1nc2sccc2c(=O)n1-c1ccccc1,5%,11%,/,-5%[46.1 µM],1%,/,22%,-22%
O=C(c1ccco1)c1cn(CC(=O)N2CCCC2)c2ccccc12,/,-1%,/,11%[46.1 µM],-6%,/,11%,-4%
Cc1ccc(C(=O)N2CCN(S(=O)(=O)c3cc(Br)ccc3Br)CC2)o1,-3%,-2%,/,?,1%,/,5%,-10%
O=C(OC1CCN(c2ncc(C(F)(F)F)cc2Cl)CC1)c1ccccc1,15%,11%,-0.4%,4%,-9%,-7%,-22%,2%
CCOC(=O)c1c(CN2CCN(c3ccccc3)CC2)oc2cc(Br)c(O)cc12,2%,/,/,/,4%,/,-1%,-28%

# Continuation.
SMILES,NS1 function inh,LASV entry inh,Cruzain inh Det,Marburg entry inh,SARS PLP yeast,Cruzain inh noDet,RE007 growth inh,2A StopGo
CC(=O)Nc1ccc(S(=O)(=O)N2CCC(NC(=O)C(Cc3ccc(C)cc3)NC(C)=O)CC2)cc1 (stereo not given),6%,10%[46.1 µM],/,?,-10%,/,-13%,5%
CCOC(=O)c1c(/N=C/N(C)C)sc(C(=O)OC)c1C,-19%,-19%,-5.4%,-17%,1%,-4%,2%,/
COc1ccccc1N1CC(C(=O)NC2CCCCCC2)CC1=O (stereo not given),/,-14%[46.1 µM],/,?,-2%,/,-5%,5%
O=C(CCC1N=C2c3ccccc3N=C(SCc3ccc(Cl)cc3)N2C1=O)NC1CCCCC1 (stereo not given),/,18%[46.1 µM],-3.7%,10%[46.1 µM],/,0%,/,8%
CC(=O)c1ccc(NC(=O)COC(=O)c2ccccc2Nc2ccccc2)cc1,4%,8%,0.2%,-6%,1%,-29%,-3%,0%
COCc1cc(=O)n2[nH]c(SC)nc2n1,1%,2%,5.2%,5%,2%,-11%,11%,11%
O=C(O)C1CC1(c1ccccc1)c1ccccc1 (stereo not given),-3%,/,/,/,0%,/,3%,-9%
CNC(=O)C(=O)NCC1OCCN1S(=O)(=O)c1ccc2c(c1)OCCO2 (stereo not given),/,-9%,/,-19%[46.1 µM],0%,/,9%,6%
C(=N\NC1=NCCCCC1)/c1c[nH]c2ccccc12,-2%,5%,/,1%[46.1 µM],4%,/,-5%,32%[activator]
O=c1c2cnn(-c3ccccc3)c2ncn1Cc1cccc(Cl)c1,-12%,/,-1.6%,/,1%,-24%,-7%,-21%
CC(NC(=O)C(=O)NCCN1CCN(C(=O)c2ccccc2Br)CC1)c1ccccc1 (stereo not given),0%,15%[46.1 µM],/,11%[46.1 µM],2%,/,-11%,0%
C/C=C/C(=O)N1CC2(CC(c3cccc(NC(=O)CC(c4ccccc4)c4ccccc4)c3)=NO2)C[C@H]1C(N)=O (stereo not given in full),?,/,/,/,-1%,/,-13%,0%
CCC1=C(OC(=O)N(CC)CC)N2C(=O)OC(=NCCOC)[C@]2(Cc2ccccc2)[C@H]2C1=CC[C@H]1C(=O)NC(=O)[C@H]12,-4%,/,-4.7%,/,0%,?,-16%,0%
CCc1ccc(-c2cc(C(F)(F)F)n3nc(C(=O)Nc4c(C)nn(Cc5ccccc5C)c4C)cc3n2)s1,2%,?,-1.3%,?,8%,1%,19%,19%
Cc1cc(C)nc(SCc2ccc(C(=O)N/N=C/c3ccccn3)cc2)n1,/,-1%,/,?,-2%,/,-5%,?
O=C(NCCNc1ccc([N+](=O)[O-])cc1)c1ccc(Cl)cc1,/,/,/,6%[46.1 µM],-4%,/,11%,-18%
COc1ccccc1NS(=O)(=O)c1ccc(NC(=O)Cc2cccs2)cc1,15%,1%,-3.6%,?,11%,5%,/,-4%
CN(C(=O)c1ccc(Cl)nc1)C1(c2ccccc2Cl)CCCCC1=O (stereo not given),/,?,/,4%[46.1 µM],18%,/,14%,-6%
CC(C)(CO)CNC(=O)CCc1nnc(-c2ccc(-c3ccccc3)cc2)o1,-5%,/,/,/,-1%,/,5%,1%
S=C(NCc1ccccc1)NCc1ccccc1Cl,-44%,/,/,/,28%,/,2%,47%[activator]
CC1(C)CN(O)CCN1O,-7%,23%,-2.2%,?,16%,-5%,5%,-7%
CCCC(=O)NC(=S)Nc1ccccc1C(=O)OC,2%,9%,3.6%,?,9%,-9%,16%,-17%
Cc1nc2ccc(S(=O)(=O)NC(C(=O)N3CCCCCC3)C(C)C)cc2s1 (stereo not given),?,/,-22%,/,5%,-24%,4%,21%
O=C(CSc1nnc(CNC(=O)c2c(F)cccc2F)o1)NCC1CCCO1 (stereo not given),4%,-3%,/,15%,-9%,/,-22%,-4%
S=C(Nc1ccccn1)NC1CCCCC1,-63%,8%,/,-1%[14.2 µM],0%,/,?,-4%

# More compounds
SMILES,NS1 function inh,LASV entry inh,Cruzain inh Det,Marburg entry inh,SARS PLP yeast,Cruzain inh noDet,RE007 growth inh,2A StopGo
C=C(C)CSc1nncn1/N=C/c1ccc(OC)cc1,-57%,?,-2.7%,?,-15%,16%,-10%,55%[activator]
O=C(Nc1nccs1)c1ccc(NC(=O)C2CC=CCC2C(=O)O)cc1 (stereo not given),5%,/,/,/,1%,/,0%,-2%
CS/C(=C\[N+](=O)[O-])Nc1ccccc1,-9%,12%,-3.7%,15%,/,-9%,-20%,-22%
Cc1cc(C)nc(SCC(=O)Nc2ccc(N3CCOCC3)cc2)n1,-36%,0%,-3.3%,1%,-1%,-5%,-16%,0%
CCCC(=O)NCCc1nc2ccccc2n1C,0%,12%,0.0%,6%,1%,?,-6%,18%
CC(=O)c1ccc(NC(=O)c2cc(C)nc3ccccc23)cc1,6%,?,/,15%,0%,/,7%,56%[activator]
CCCn1c(/C=C/c2ccco2)nc2ccccc21,17%,-1%,-13%,-1%,-23%,-22%,-4%,22%
COc1ccccc1-c1nnc(SCC(=O)NC2CCCCC2)n1C,-15%,22%[46.1 µM],/,-9%[46.1 µM],-4%,/,10%,1%
O=C1CN(C(=O)CN2CCCCC2)C(c2ccccc2)c2cc(Br)ccc2N1 (stereo not given),-4%,-13%,6.9%,?,0%,-11%,1%,-6%
C#CCOCCOCCOCCNc1nc(N2CCN(C(=O)[C@H](Cc3ccc(O)cc3)n3cc([C@@H](N)C(C)CC)nn3)CC2)nc(N2CCN(C(=O)[C@H](CCCCN)n3cc([C@@H](N)CO)nn3)CC2)n1 (stereo not given in full),2%,/,/,/,-1%,/,-9%,-13%
Cc1ccc(C(C(=O)NC2CCCCC2)N(C(=O)c2csnn2)C2CC2)cc1 (stereo not given),0%,6%[46.1 µM],/,6%[46.1 µM],1%,/,6%,21%
COc1cc2ncnc(NCc3ccc(C)cc3)c2cc1OC,12%,-6%,-5.0%,?,2%,2%,14%,-13%
